# TRPV1 potentiator = HTS Assay for Compounds that Act as Potentiators of the Vanilloid Receptor 1; TRPV1-expressing cells, Fluo-8 calcium influx, capsaicin EC20 potentiation; host cell line not named in the record; control for the full effect not named in the record; hit rate 0.02% among 320,000; potentiation, % at 8.33 µM; active means potentiation above 80%; inconclusive means 30% to 80%; inactive means below 30%; also: 0% is about no effect
#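 TRPV1-expressing cells were cultured overnight at 35.5C and loaded with Fluo-8 calcium dye for 40 to 90 min at room temperature. After a 10 s baseline, compound was added and calcium influx was read kinetically for 3 min (ex 480/em 520 nm).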
# PINK1 modulator = A Quantitative High throughput Screen to Identify Chemical Modulators of PINK1 Expression | PINK1 immunofluorescence, high-content cytometry, 24 h | hit rate 0.2% among 410,000 | Potency, µM (titrated, usually from 76.6 µM), for the others: at the top dose activation (PINK1 increase), usual class: activators; active = well fitted activation curve with a large enough effect; inconclusive = small, poorly fitted or top-dose-only effect; inactive = flat fitted curve, though single readings scatter; cell line not stated here;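 also: potency is read from the fitted curve at half-maximal effect; % of control where 0% means no effect; nearly all actives have a fitted effect of over 65% in size; a mitochondrial uncoupler was the plate control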
#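 A stable cell line was treated with compounds at 5 concentrations for 24 hours, with CCCP as control. PINK1 levels and mitochondrial localization were measured by immunofluorescence with mitochondrial, cell and nuclear markers after fixation, read by laser-scanning cytometry.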
# Six1-Eya2 inh = qHTS Assay for Inhibitors of the Six1/Eya2 Interaction | AlphaScreen GST-Six1/His-Eya2 binding, biochemical; stronger effect = lower value; control for the full effect not named in the record | activity change, % (concentration not given with the values) | Homeobox protein SIX1 (Homo sapiens) + Protein phosphatase EYA2 (Homo sapiens), … | hit rate 0.56% among 360,000; in the data active = activity change below about -65%; inconclusive = about -30% to -65%; inactive = above about -30%; also: % is scaled to controls: 0 for no effect and ±100 for the full control effect
#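 Homogeneous AlphaScreen proximity assay pairing GST-Six1 with His-tagged Eya2 (added as 5X mix: 250 nM and 500 nM) in 50 mM Tris pH 8.0, 300 mM NaCl, 1 mM TCEP. Glutathione donor and nickel acceptor beads; 1 h, 37 °C, dark.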
# CtBP-E1A inh = qHTS Assay for Inhibitors of the CtBP/E1A Interaction; CtBP / adenovirus E1A interaction (AlphaScreen); AlphaScreen GST-E1A/His-CtBP binding, 1536-well; stronger effect = lower value; control for the full effect not named in the record; activity change, % (concentration not given with the values); AID 651724, 2012; hit rate 0.49% among 340,000; in the data active means activity change below about -65%; inconclusive means about -30% to -65%; inactive means above about -30%; also: % is scaled to controls: 0 for no effect and ±100 for the full control effect
#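 AlphaScreen with 125 nM GST-E1A and 125 nM His-CtBP (5X stocks) in Tris pH 8.0, 300 mM NaCl, BSA, Tween 20, TCEP. Compounds preincubated 2 h at 37 deg C, then glutathione donor/nickel acceptor beads added for 1 h at 37 deg C in dark.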
# D2 agonist = Beta-Arrestin HTS for Positive Allosteric Modulators of the Human D2 Dopamine Receptor: Agonists. D(2) dopamine receptor (Homo sapiens), P14416. DiscoveRx PathHunter D2 beta-arrestin, luminescence, 90 min; 100% = 57 uM dopamine signal. hit rate 0.084% among 360,000. activation, % (no concentration beside the values); in the data active = activation above about 40%; inconclusive = about 15% to 40%; inactive = below about 15%; also: compound concentration not given in the record; the text of the record calls up to 30% inactive
# Target sequence (P14416 whole entry, looked up): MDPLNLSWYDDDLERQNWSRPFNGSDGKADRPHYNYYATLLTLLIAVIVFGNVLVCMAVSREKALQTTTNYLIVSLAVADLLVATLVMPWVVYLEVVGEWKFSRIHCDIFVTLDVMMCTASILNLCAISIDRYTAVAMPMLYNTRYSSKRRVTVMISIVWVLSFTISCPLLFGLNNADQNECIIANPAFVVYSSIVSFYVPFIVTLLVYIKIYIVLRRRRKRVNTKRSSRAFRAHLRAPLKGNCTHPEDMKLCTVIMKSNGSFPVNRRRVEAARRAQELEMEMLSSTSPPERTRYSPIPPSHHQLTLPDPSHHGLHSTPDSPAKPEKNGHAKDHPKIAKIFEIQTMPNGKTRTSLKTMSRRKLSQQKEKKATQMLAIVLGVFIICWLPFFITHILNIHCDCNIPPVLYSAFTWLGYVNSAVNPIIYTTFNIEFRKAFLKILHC
#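 Agonist mode: compounds alone added to overnight-plated D2 PathHunter cells for 90 min at 37 C, with 57 uM final dopamine (EC100) defining full response. Beta-arrestin recruitment detected by chemiluminescent reagent, read after 1 h at ambient temperature.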
# Sfp PPTase inh = qHTS Assay for Inhibitors of Bacillus subtilis Sfp phosphopantetheinyl transferase (PPTase); 4'-phosphopantetheinyl transferase ffp (Bacillus subtilis), Q9F4F7; Biochemical Sfp PPTase activity, qHTS; Potency, µM, inactives show max response, negative = inhibition, usual class: inhibitors; hit rate 3.5% among 310,000; AID 1490, 2009; active = well fitted inhibition curve with a large enough effect; inconclusive = small, poorly fitted or top-dose-only effect, or another doubt; inactive = no such curve, though single readings can be large or run the other way;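 also: the enzyme is Sfp with the accession as filed and its product quenches rhodamine fluorescence; potency is read from the fitted curve at half-maximal effect; 0% = enzyme reaction without inhibitor and -100% = no enzyme wells; top concentration of the series not given in the record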
#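 Buffer: 50 mM Hepes-Na pH 7.6, 10 mM MgCl2, 0.01% Nonidet P-40, 0.01% BSA. Enzyme 15 nM, pre-exposed to compound 15 min; substrates then added and fluorescence change tracked over 30 min.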
# D2 potentiator = Beta-Arrestin HTS for Positive Allosteric Modulators of the Human D2 Dopamine Receptor: Potentiators; potentiation, % (test concentration not listed); hit rate 0.23% among 360,000; D(2) dopamine receptor (Homo sapiens), P14416; DiscoveRx D2 beta-arrestin cells, luminescence, 90 min; 100% = 57 uM dopamine signal; active = potentiation of 50% or more; inconclusive = 30% to 50%; inactive = 30% or less;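 also: compound concentration not given in the record; tested on top of an EC20 dose of dopamine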
#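 D2 cells co-treated with compound plus 50 nM dopamine (EC20) for 90 min at 37 deg C to detect potentiation. Beta-arrestin recruitment was read as enzyme-fragment luminescence after 1 h at ambient temperature. Full response was set by 57 uM dopamine.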
# An asterisk follows results filed as active; ? = inconclusive; · = not tested or not shown; [ ] = dose if it differs, or a comment. Compounds as they come. Share with any hit: about 3.7%.
no.	smiles	TRPV1 potentiator	PINK1 modulator	Six1-Eya2 inh	CtBP-E1A inh	D2 agonist	Sfp PPTase inh	D2 potentiator
1	O=C(Cc1ccc2c(c1)OCCO2)Nc1cc(C(F)(F)F)ccc1N1CCOCC1	-1.3	1.6%	4.1	8.2	-1.2	·	2.0
2	Cc1ccc(-c2nc(=S)c3c(n2CCN2CCOCC2)CC(C)(C)OC3)cc1	29.7	-3.2%	6.6	5.0	0.2	-15.7%	-5.6
3	C=CCNC(=S)Nc1ccccc1-c1nnc2n1CCCCC2	-9.2	-0.1%	3.7	-9.8	-0.2	-13.9%	-7.2
4	CC(=O)N[C@H]1[C@H]([C@H](O)[C@H](O)CO)OC(C(=O)O)=C[C@@H]1O	·	-0.5%	2.3	8.2	-7.5	·	-0.5
5	O=C(Nc1ncc(S(=O)(=O)c2ccc([N+](=O)[O-])cc2)s1)c1ccccc1F	-2.7	11.0%	-0.5	-5.9	7.4	3.9%	-6.0
6	CCCOC(=O)Nc1nc(-c2ccc(C)cc2)c(C)s1	-10.4	7.5%	1.4	-4.2	3.6	-10.4%	1.7
7	COc1ccc(NC(=O)c2ccc(Cn3cc(Cl)cn3)cc2)cc1	-3.5	-0.2%	4.1	-1.5	-0.6	-15.7%	-5.2
8	CN1CCN(C(=O)/C=C/c2ccccc2)CC1	-2.6	0.8%	1.6	5.1	-2.2	4.8%	-11.1
9	CCCN(CCC)C(=O)c1ccc2c(c1)N(CC)C(=O)c1ccccc1S2(=O)=O	-1.0	0.0%	0.8	5.0	0.5	-3.0%	-9.4
10	C=C1CCN([C@H](C(=O)NCc2ccc(OC)cc2)C(C)C)S(=O)(=O)c2ccccc21	-9.3	0.1%	12.6	·	-0.9	-14.9%	-3.3
11	COc1ccc(C2C(C#N)=C(N)N(Nc3ccccc3)C3=C2C(=O)CC(C)(C)C3)cc1C (stereo not given)	-1.3	-0.7%	-6.4	-7.0	-1.7	21.4%	-4.8
12	COc1ccc(C2CC(=O)C(C=NCC(C)C)=C(O)C2)cc1 (stereo not given)	-15.4	1.7%	-6.6	·	4.4	25.8%	-2.1
13	Cc1ccc(S(=O)(=O)N2CCC(c3nnc(SCCN4CCCC4)n3C)CC2)cc1	5.1	-0.3%	-1.7	1.6	-1.2	24.2%	-2.6
14	Cc1ccc(C(=O)Nc2ccc(C(=O)N3CCCCC3C)cc2)cc1 (stereo not given)	-10.8	2.1%	11.2	4.9	-0.2	10.3%	-2.6
15	CCn1c(Cc2ccc(OC)cc2)nnc1SCC(=O)Nc1nc2ccccc2s1	9.0	7.0%	3.9	2.1	0.6	11.6%	-2.0
16	CCN(CC(=O)Nc1ccc(NC(C)=O)cc1)C(=O)c1cccc(S(=O)(=O)N2c3ccccc3CC2C)c1 (stereo not given)	-10.8	0.5%	0.4	4.0	-0.9	·	1.4
17	Cc1ccccc1Cn1nc(C)c(NC(=O)c2noc3c2CC(C(C)(C)C)CC3)c1C (stereo not given)	-2.7	13.5%[38.3 µM]	-10.0	-1.6	0.1	8.4%	-7.2
18	OCC1CCCN(C2CCN(Cc3nc(Cc4cccc(C(F)(F)F)c4)no3)CC2)C1 (stereo not given)	-16.2	0.8%	-3.2	7.2	-3.4	11.5%	-4.9
19	COCCN(C(=O)c1ccc(N2CCCC2=O)cc1)c1c(N)n(CC(C)C)c(=O)[nH]c1=O	-1.3	1.1%	-6.0	7.7	-5.5	·	-10.0
20	COc1ccc(CCNC(=O)CN2CCCc3ccccc32)cc1OC	-8.3	-1.5%	-2.2	2.0	-0.7	1.8%	-0.8

# (more compounds)
no.	smiles	TRPV1 potentiator	PINK1 modulator	Six1-Eya2 inh	CtBP-E1A inh	D2 agonist	Sfp PPTase inh	D2 potentiator
21	Cc1ccc(CNS(=O)(=O)c2ccc([N+](=O)[O-])cc2)cc1	?	-0.4%	-0.3	-13.0	2.4	14.8%	0.1
22	CC(Oc1ccc(F)cc1)C(=O)Nc1ccc(N2CCOCC2)cc1N1CCOCC1 (stereo not given)	-15.1	2.5%	-14.3	-3.2	-1.0	·	-5.0
23	C#CCOCCOCCOCCNc1nc(N2CCN(C(=O)Cn3cc(CC(C)O)nn3)CC2)nc(N2CCN(C(=O)[C@H]([C@@H](C)CC)n3cc(CCCCN)nn3)CC2)n1 (stereo not given in full)	·	-0.5%	-4.8	2.8	-0.4	·	-2.4
24	CC1CN(C(=O)Cc2ccc(-c3ccccc3)cc2)CC(C)O1 (stereo not given)	-15.5	9.4%[38.3 µM]	3.1	2.8	-0.5	-2.4%	-9.5
25	O=C(NCCCn1ccnc1)c1cccc(Cl)c1	3.9	1.8%	3.4	5.6	-1.7	3.5%	-13.0
26	C[C@@H]1CN([C@H](C)CO)C(=O)CCCn2nncc2CO[C@H]1CN(C)S(=O)(=O)c1ccc2ccccc2c1	·	1.8%	-12.0	-19.0	-8.6	·	0.5
27	CC(NC(=O)Nc1ccccc1F)C(C)(C)C (stereo not given)	-3.3	0.6%	5.8	·	-8.6	24.5%	-6.3
28	CCNC(=S)NNc1nc(N2CCCCC2)nc(N2CCOCC2)n1	19.9	-1.4%	10.0	4.2	-1.2	11.2µM*	-5.4
29	Cc1cc(C)c2c(ccc3ccccc32)n1	·	0.7%	5.0	1.1	-1.4	·	-26.5
30	Cn1c(NC(=O)Cc2ccc(F)cc2)cc(=O)n(C)c1=O	?	-0.5%	-7.8	2.8	-4.4	-5.6%	-2.9
31	COc1ccc(-c2cc(C(=O)NCCCn3ccnc3)no2)cc1	-5.6	-0.2%	-1.2	-2.0	-3.4	15.5%	-16.1
32	CCS(=O)(=O)Nc1cc(C(=O)O)ccc1C	1.6	-0.5%	0.7	-0.1	-2.5	23.8%	-0.4
33	CC(=O)NC(CC(=O)OCC(=O)c1ccc(NC(=O)CC(C)C)cc1)c1ccccc1 (stereo not given)	-7.9	4.5%	-11.9	7.4	-1.1	·	-3.8
34	COCCn1c(SCC(=O)N2CCCc3ccccc32)nnc1-c1ccco1	-1.9	3.0%[38.3 µM]	-0.2	-1.0	-0.2	-0.6%	-8.3
35	O=C(O)CC1NCCc2ccccc21 (stereo not given)	-12.7	0.4%	5.0	-2.1	-4.4	14.6%	-7.9
36	CCOc1ccc(Cc2onc3c2C(=O)CC(C)(C)C3)cc1OCC	7.7	1.7%	20.5	10.1	0.6	-1.8%	2.6
37	Cc1nc(N2CCC(C)CC2)c2c(C)c(C(=O)Nc3ccc(C)c(F)c3)sc2n1	-10.1	6.8%	1.8	4.7	-0.4	38.0%[activator]	-3.7
38	CCCc1ccc(S(=O)(=O)N/N=C\c2ccc3c(c2)OCO3)cc1	-1.1	3.5%	0.9	3.6	-2.9	12.8%	6.4
39	CCOC(=O)c1c(C)[nH]c(C2=NNC(=Nc3ccccc3OC)SC2)c1C	-6.9	?	?	?	-4.0	79.4µM*	-16.6
40	COc1ccc(NC(=O)NCc2ccc3c(c2)OCO3)cc1OC	-14.1	9.7%	-0.2	-1.6	3.5	12.3%	-13.3

# Later entries
no.	smiles	TRPV1 potentiator	PINK1 modulator	Six1-Eya2 inh	CtBP-E1A inh	D2 agonist	Sfp PPTase inh	D2 potentiator
41	CCOC(=O)[C@]12CCC=C1N(Cc1ccc(Cl)cc1Cl)C(=O)[C@H](CC(=O)N1CCOCC1)C2	·	-0.2%	-0.6	1.3	·	·	·
42	CCCc1cc(=O)[nH]c(SCc2ccc(C#N)cc2)n1	1.3	-1.2%	2.7	3.1	-0.4	13.9%	-9.7
43	O=C(C1CCN(S(=O)(=O)c2ccccc2)CC1)N1CCCCC1	-7.0	-0.2%	0.9	5.3	0.8	2.0%	-2.5
44	CCOC(=O)c1c(C)nc2sc3c(=O)[nH]cnc3c2c1-c1ccc(OC)cc1	23.4	-2.8%	-4.8	-7.4	-1.0	-0.7%	-15.0
45	COC(=O)C1=C(Nc2ccccc2NC(=O)CCCC(=O)O)CSC1	?	4.3%	-7.0	2.7	5.2	79.4µM*	6.9

# Quoted from the listing:
# Reading of entry 21 in CtBP-E1A inh: -13.0
# Reading of entry 9 in D2 potentiator: -9.4
# Reading of entry 26 in CtBP-E1A inh: -19.0
# Reading of entry 36 in Sfp PPTase inh: -1.8%
# Reading of entry 37 in Six1-Eya2 inh: 1.8

# Record cards, as listed above. Order of screens: TRPV1 potentiator, PINK1 modulator, Six1-Eya2 inh, CtBP-E1A inh, D2 agonist, Sfp PPTase inh, D2 potentiator
# `CC(=O)NC(CC(=O)OCC(=O)c1ccc(NC(=O)CC(C)C)cc1)c1ccccc1` (stereo not given) across the screens: -7.9, 4.5%, -11.9, 7.4, -1.1, ·, -3.8
# `COc1ccc(CCNC(=O)CN2CCCc3ccccc32)cc1OC` across the screens: -8.3, -1.5%, -2.2, 2.0, -0.7, 1.8%, -0.8
# `COc1ccc(-c2cc(C(=O)NCCCn3ccnc3)no2)cc1` across the screens: -5.6, -0.2%, -1.2, -2.0, -3.4, 15.5%, -16.1
# `Cc1ccc(CNS(=O)(=O)c2ccc([N+](=O)[O-])cc2)cc1` across the screens: ?, -0.4%, -0.3, -13.0, 2.4, 14.8%, 0.1
# `COc1ccc(C2C(C#N)=C(N)N(Nc3ccccc3)C3=C2C(=O)CC(C)(C)C3)cc1C` (stereo not given) across the screens: -1.3, -0.7%, -6.4, -7.0, -1.7, 21.4%, -4.8

# Screening data (PubChem)
